# HIV TAR-Tat = TAR RNA-Tat peptide displacers, HIV-1, primary screen, biochemical, FRET, FAM/TAMRA-labeled Tat. AID 1259389, 2018. HIV-1 TAR RNA, Tat peptide displacement FRET; active compounds read high. z-score (no concentration beside the values). 100,000 tested, 0.6% active;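 also: score is relative to mean and SD of negative controls; some compounds called inactive have numbers as strong as hits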
# CDC25B CDK2 inh = primary biochemical HTRF screen for blockers of M-phase inducer phosphatase 2 binding to CDK2/cyclin A. z-score (no concentration beside the values). HTRF CDC25B-CDK2/CyclinA binding, anti-His/anti-Flag; active compounds read high. 94,000 tested, 0.72% active. P30305+P24941;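 also: score is relative to mean and SD of negative controls; strong numbers were not always called active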
# Numbers without * were called inactive; x = not tested or not shown.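 The calls were made as follows: active = z-score from 3 up in half or more of its runs; inactive = the rest.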
# Preview:
smiles	HIV TAR-Tat	CDC25B CDK2 inh
COC(=O)c1nnn(-c2ccc(Br)cc2F)c1C(=O)OC	0.63	-4.1
CC(C)Cc1ccc(S(=O)(=O)N2CCN(c3ccc(F)cc3)CC2)cc1	x	0.6

# All compounds of this part (from the top)
smiles	HIV TAR-Tat	CDC25B CDK2 inh
COC(=O)c1nnn(-c2ccc(Br)cc2F)c1C(=O)OC	0.63	-4.1
CC(C)Cc1ccc(S(=O)(=O)N2CCN(c3ccc(F)cc3)CC2)cc1	x	0.6
CSc1ncc(Cl)c(C(=O)N(Cc2ccc(F)cc2)C2CCS(=O)(=O)C2)n1 (stereo not drawn)	2.3	-1.8
Cc1cccc(Nc2nc3nonc3nc2Nc2c(C)n(C)n(-c3ccccc3)c2=O)c1C	-1.9	-1.4
CCOc1ccccc1Nc1nc2ccccc2c2nncn12	1.5	0.67
CCOc1cccc(-c2nc3c(c(=O)[nH]2)Cc2cc(Br)ccc2O3)c1	0.59	-0.43
COCCCNC(=O)C1CCCN(S(=O)(=O)c2c(C)noc2/C=C/c2cccs2)C1 (stereo not drawn)	x	-2.7
C[C@]12CS(=O)(=O)C[C@H]1SC(=S)N2c1ccccc1	2.2	-1.3
CCOC(=O)Cn1c(-c2ccccn2)nc2ccccc21	2	0.12
Cc1ncc(-c2ccc(C)c(S(=O)(=O)N3CCc4ccccc4C3)c2)o1	1	x
COC(=O)c1ccc2c(=O)n(CC3CCCO3)c(SCc3cc(=O)n4ccccc4n3)nc2c1 (stereo not drawn)	x	-0.02
COc1ccc2c(c1)CCC1C2CCC2(C)C(=O)CCC12 (stereo not drawn)	x	-1.6
CCOC(=O)C1CCCN(S(=O)(=O)c2cc(Br)cc3c2N(C(C)=O)CC3)C1 (stereo not drawn)	x	-0.02
Fc1cccc(NN=Nc2ccc(Cl)c(Cl)c2)c1	x	-0.71
Cc1ccc(-n2c(C)c(C)c3c2ncn2nc(-c4ccncc4)nc32)c(C)c1	0.4	-0.73
O=C1CCCN2N=C(SCc3ccc(Cl)cc3)SC2=N1	3.8	x
O=S(=O)(c1ccc2nc(Nc3ccc(-c4ccno4)cc3)ccc2c1)N1CCCC1	0.75	x
CCn1ccc2cc(S(=O)(=O)N3CCCC(C(=O)N4CCN(C5CCCCC5)CC4)C3)ccc21 (stereo not drawn)	1.4	x
COc1ccc(CN2N=NC3C(=O)N(c4ccc(F)cc4)C(=O)C32)cc1Br (stereo not drawn)	0.02	-0.42
O=C(CCSc1nc(-c2ccco2)cc(C(F)(F)F)n1)Nc1ccccc1F	-1.1	-1.3
COC(=O)C1=C(C)NC2=C(C(=O)CC(C)(C)C2)C1c1ccc(F)c(F)c1 (stereo not drawn)	1.3	-0.01
CCn1cc(S(=O)(=O)c2ccc(F)cc2)c(=O)c2cc(C)ccc21	0.53	-1
C=CCOc1c(Cl)cc(CNCCSc2nnnn2C)cc1OC	-0.03	-0.21
Cc1cc(C(=O)Nc2ccc(Cl)cc2)on1	x	-1
COc1cc(-c2nc3c(cnn3-c3ccccc3)c(=O)[nH]2)cc(OC)c1OC	x	-2.3
COc1ccc(-c2nc(SCC(=O)c3ccc(Cl)cc3)n[nH]2)cc1	1.5	x
O=C1CC(c2cc(Br)ccc2F)c2cc3c(cc2N1)CCC3 (stereo not drawn)	x	-3.4
O/N=C/c1ccc(-c2cc(C(F)(F)F)cc(C(F)(F)F)c2)o1	x	-0.48
O=C(Nc1ccc(Br)cc1)Nc1c[nH]c(=O)[nH]c1=O	0.93	x
c1ccc2c(c1)Nc1nc3ccccc3nc1O2	x	-1.2

# Another view of four compounds above:
structure: CCn1cc(S(=O)(=O)c2ccc(F)cc2)c(=O)c2cc(C)ccc21
  HIV TAR-Tat: 0.53
  CDC25B CDK2 inh: -1

structure: C=CCOc1c(Cl)cc(CNCCSc2nnnn2C)cc1OC
  HIV TAR-Tat: -0.03
  CDC25B CDK2 inh: -0.21

structure: Cc1cc(C(=O)Nc2ccc(Cl)cc2)on1
  HIV TAR-Tat: x
  CDC25B CDK2 inh: -1

structure: COc1cc(-c2nc3c(cnn3-c3ccccc3)c(=O)[nH]2)cc(OC)c1OC
  HIV TAR-Tat: x
  CDC25B CDK2 inh: -2.3

# Carrying on:
smiles	HIV TAR-Tat	CDC25B CDK2 inh
O=C1c2cccnc2C(=O)N1Cc1ccc(S(=O)(=O)N2CCOc3ccc(Cl)cc32)s1	2	x
CC(=O)/C(C)=N/O	x	0.23
O=C(NCc1ccco1)C1c2ccccc2C(=O)N(C2CCCC2)C1c1cccs1 (stereo not drawn)	-0.12	x
CN(C)CCN(C(=O)CCOc1ccccc1)c1nc2ccc(F)cc2s1	0.3	x
Cc1ccc2c(c1)Cc1c(nc(-c3ccc(C(C)C)cc3)[nH]c1=O)O2	1	-1
O=C(N/N=C1/CCCc2occc21)c1ccc([N+](=O)[O-])cc1	x	0.05
CSc1cccc(N2C(=O)c3cc4ccccc4n3CC2(C)C(=O)NC2CCCC2)c1 (stereo not drawn)	2.3	x
COc1ccc(Nc2cc(-n3nc(C)cc3C)ncn2)cc1OC	0.93	x
CN1C(=O)c2cc(NC(=O)CC3CCCC3)ccc2N2CCN=C12	0.85	x
COc1ccc2c(c1OC)C(=O)N1c3ccccc3N=C(c3ccc(C)cc3)CC21 (stereo not drawn)	2.3	-0.48
CCc1ccc(NS(=O)(=O)c2cn(C)c(C)n2)cc1	0.73	x
COc1ccc(-c2noc(CSc3nnc(CCc4ccccc4)n3C)n2)cc1OC	2.7	-1.6
O=c1ccc(-c2ccc(S(=O)(=O)N3CCC(Cc4ccccc4)CC3)o2)n[nH]1	1.4	x
CC(C)NS(=O)(=O)c1cn(CC(=O)N2CCc3ccccc32)cc1S(=O)(=O)NC(C)C	3.1	x
CCOc1ccc(C(=O)Nc2ccc3c(c2)C(=O)c2ccccc2C3=O)cc1	x	0.8
Cc1noc2ncn(Cc3ccc(F)cc3)c(=O)c12	2.9	-0.19
COC(=O)CSC1=C(C#N)C(c2ccc(C)cc2)CC(=O)N1 (stereo not drawn)	-0.16	-0.37
Cc1cccc(NS(=O)(=O)c2ccc(-c3cc(C)[nH]n3)s2)c1	2	x
COC(=O)c1cc(S(=O)(=O)NCCC2=CCCCC2)c[nH]1	2.7	x
N#Cc1nc(-c2ccc(S(=O)(=O)N3CCc4ccccc4C3)cc2)oc1NCC1CCCO1 (stereo not drawn)	0.46	0.46
CCCC(=O)O[C@]1(C(=O)CO)CCC2[C@@H]3CCC4=CC(=O)CC[C@]4(C)C3[C@@H](O)C[C@@]21C (stereo partly drawn)	0.95	x
O=[N+]([O-])c1cc(C(F)(F)F)cc2c1nc1ccccn12	x	0.24
COc1ccc(-c2nn3c(-c4ccccc4Cl)nnc3s2)cc1	0.87	-0.46
Cc1nn(CCCC(=O)NC(C)CCc2ccccc2)c(=O)c2cc3occc3n12 (stereo not drawn)	2.3	-0.94
CC1=C(c2ccc(F)cc2)S(=O)(=O)N=C1Nc1ccc(Cl)cn1	0.94	x
Cc1ccc(OCc2nnc(SCc3cc(=O)c4cc(Cl)ccc4[nH]3)n2C)cc1	-0.92	x
CCOC(=O)c1noc2ncnc(N(C)C3CCCCC3)c12	-0.08	x
Cc1ccc(-n2nc3c(c2NC(=O)c2ccc(Br)cc2)CSC3)cc1	x	0.1
O=C(c1nc(-c2cccnc2)no1)N1CCCC1	1.2	x
CCN1C(=O)C2(/C(=C(/O)c3ccc(OC)c(C)c3)C(=O)C(=O)N2CCCN(C)C)c2ccccc21 (stereo not drawn)	3.4	-1.1
Cc1ccc(C)c(-n2c(Cc3cc(=O)[nH]c(=O)[nH]3)nnc2SCC(=O)c2ccc(Cl)cc2)c1	0.36	x
O=C(O)c1cc(N2CCC(N3CCCCC3)CC2)nc2ccccc12	1.2	x
Cc1ccc(C(c2cc(Cl)c3cccnc3c2O)N2CCOCC2)cc1 (stereo not drawn)	0.02	x
COCCCNC(=O)Cn1c(=O)c2cccn2c2ccc(F)cc21	0.21	x
Cc1onc(C(=O)NC2CCCC2)c1[N+](=O)[O-]	3.2	-1.5
CC1CCCC(NC(=O)Nc2ccc3snnc3c2)C1C (stereo not drawn)	1.6	-0.55
COc1ccc(CNc2nc(-c3ccc(OC)cc3)cc(C(F)(F)F)n2)cc1	x	-1
CN(C)CCCNc1ncnc2c1c(-c1ccccc1)cn2-c1cccc(C(F)(F)F)c1	x	-1.8
O=C(c1ccc(NC2=NC3CS(=O)(=O)CC3S2)cc1)N1CC=C(c2ccccc2)CC1 (stereo not drawn)	1.1	x
Fc1cccc(NCc2cccn2-c2nnc(N3CCOCC3)s2)c1	0.13	x
O=C(OCc1sccc1Oc1ccccc1)c1ccc(Cl)cc1	x	-1.9
CCN1CCCC1CNC(=O)CCCn1c(=O)c2cccn2c2ccc(F)cc21 (stereo not drawn)	1.9	x
CCCCNC(=O)NCCNc1ccc(C(F)(F)F)cn1	x	0.73
Cc1onc(-c2ccccc2Cl)c1C(=O)OCC(=O)c1ccc(Br)cc1	16	-0.53
O=C(O)CCc1ccc(OCc2ccccc2)cc1	x	-0.57
COc1nc(C)ccc1-c1noc(-c2ccc(Cl)cc2)n1	1.7	-0.6
CC(=O)N1N=C(c2ccc(F)cc2)OC1c1ccncc1 (stereo not drawn)	2.4	x
CCOc1ccc(C2CC(=O)Nc3c2c(C)nn3-c2ccc3nnc(C)n3n2)cc1 (stereo not drawn)	0.31	x
O=C(Nc1cc(F)ccc1F)C1CCN(c2ncnc3c2nc2n3CCCCC2)CC1	-0.01	x
Cc1n[nH]c(=S)n1Cc1ccccc1	x	-1.6

# (cont.)
smiles	HIV TAR-Tat	CDC25B CDK2 inh
O=C(CSc1nc2ncccc2[nH]1)NCc1ccc2c(c1)OCO2	0.54	0.04
CCC1CN(C(=O)Nc2cc(F)ccc2F)c2ccccc2S1 (stereo not drawn)	1.4	x
CN1CCN(c2ccc3nnc(CCC(=O)NC4CCCCC4)n3n2)CC1	1.3	x
CN(Cc1ccco1)S(=O)(=O)c1ccc2c(c1)NC(=O)CS2	2.5	x
Cc1ccc(C(CNC(=O)c2oc3cc(C)c(Cl)cc3c2C)N2CCCC2)o1 (stereo not drawn)	1.1	-2
COc1ccc(-c2cc(C)no2)cc1S(=O)(=O)N1c2ccccc2CC1C (stereo not drawn)	-1.5	x
CCOc1ccc2c(=O)c(Oc3cc(C)cc(C)c3)coc2c1	-0.48	-0.56
N#Cc1c(N2CCCC2)nsc1-c1ccccc1	x	-2.7
Cc1c(C(=O)O)sc2ncnc(NC(C)C)c12	0.33	x
CCCCC12CN3CC(C)(CN(C1)C3c1ccc(CC)cc1)C2=O (stereo not drawn)	-0.52	-2.1
O=C1c2ccccc2C(=O)C1c1ccc2ccccc2n1	1.4	-0.65
Cn1c(CCc2ccccc2)nnc1SCc1nc(-c2cccs2)no1	2	-1
O=c1ccc(-c2ccc(S(=O)(=O)N3CCCN(Cc4ccc(F)cc4)C3)o2)n[nH]1	1.2	x
O=S(=O)(c1ccc(S(=O)(=O)N(Cc2ccc(F)cc2)CC2CCCO2)cc1)N1CCCCC1 (stereo not drawn)	0.96	-1.6
COCc1nc2ccccc2n1CCCOc1ccc(Cl)cc1	0.93	-2.8
COC(=O)c1cc2occc2n1CC(=O)Nc1ccc(F)cc1F	0.5	-0.87
Cc1ccc(CN2C(=O)c3oc4ccc(Cl)cc4c(=O)c3C2c2cccc(O)c2)cc1 (stereo not drawn)	-0.04	-0.28
COC(=O)C1CCN([C@H]2CS(=O)(=O)C[C@@H]2S(=O)(=O)c2ccccc2)CC1	0.22	-1.2
CCOc1ccc(/C=N/NC(N)=S)cc1	x	-1.4
COc1cc(-c2nc3ccccc3c(=O)[nH]2)cc(OC)c1OC	x	-3.1
CCc1cc(C2CCCN2C(=O)c2cc3nc(-c4cccs4)cc(C(F)(F)F)n3n2)on1 (stereo not drawn)	2.1	x
O=C(Nc1ccc2c(c1)OCCO2)c1cn(-c2ccc(F)cc2)nn1	0.07	0.15
Cc1ccc(-c2noc(/C=C/c3ccccc3Cl)n2)cc1	0.01	-1.6
CCn1nc(C)c(CCNC(=O)c2cnc(N(C)C)nc2)c1C	1.2	x
N#CC(C#N)=NNc1cccc(F)c1C#N	x	-2.5
O=C(Nc1cncc(C#Cc2ccccc2)c1)Nc1cccc(C(F)(F)F)c1	x	-0.91
COC(=O)c1nc2nc(C)cc(C(F)(F)F)n2n1	2.4	x
CCOc1ccc2nc(N3CCC(C(=O)N4CCN(C5CCCCC5)CC4)CC3)sc2c1	0.29	-2.5
CCC(C)NC(=O)c1ccc2c(c1)N=C(C)c1cc(C)ccc1S2 (stereo not drawn)	5.9*	-1.9
CCCCCn1c(N2CCCCC2)nc2c1c(=O)[nH]c(=O)n2C	x	-0.69
Cc1cc(C)c(S(=O)(=O)Nc2ccc(O)cc2)c(C)c1	0.57	-0.75
Cn1c(=O)oc2cc(S(=O)(=O)N3CCCC(C(=O)Nc4cccnc4)C3)ccc21 (stereo not drawn)	-3.3	3.5
Cc1ccc(NC(=O)CSc2nc(N)c3c4c(sc3n2)COC(C(C)C)C4)cc1 (stereo not drawn)	x	-25
Cn1cccc1-c1cc2n(n1)CCCN2C(=O)CCC(=O)NC1CCCCC1	1.1	x
CCOc1ccc(NC(=O)NCc2c(C)nn(CC)c2C)cc1	0.3	x
Cc1c(C(=O)N(C)c2ccccc2)sc2nc3n(c(=O)c12)CCCCC3	0.45	x

# Bioassay records deposited in PubChem by Center for Chemical Genomics, University of Michigan.
